# Screening results (PubChem)
# Mtb MenB inh – blocks the Mycobacterium tuberculosis MenB enzyme; MenB enzyme assay, absorbance read-out; some hits fall short of the stated cut; inhibition, %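 (about 12 µg/mL by stock and volumes)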; P9WNP5; hit rate 0.43% among 100,000; AID 540299;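 active = mean of two replicates above 30%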;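 note: 0% = no compound and 100% = wells with inactive enzyme; the first replicate is given; strong numbers were not always called active; inactives centre near -10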
# Target sequence (P9WNP5 whole entry, looked up): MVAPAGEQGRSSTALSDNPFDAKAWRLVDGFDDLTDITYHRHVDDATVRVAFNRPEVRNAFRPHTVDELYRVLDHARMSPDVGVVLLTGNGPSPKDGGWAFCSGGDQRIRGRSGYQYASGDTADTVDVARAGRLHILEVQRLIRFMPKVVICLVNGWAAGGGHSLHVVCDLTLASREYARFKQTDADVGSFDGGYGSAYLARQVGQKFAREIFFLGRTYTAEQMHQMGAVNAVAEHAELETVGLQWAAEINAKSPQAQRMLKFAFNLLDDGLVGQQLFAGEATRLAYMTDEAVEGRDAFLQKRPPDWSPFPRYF
# PV pol inh – inhibitors of poliovirus RNA polymerase binding and polymerization. P03300. poliovirus polymerase elongation, fluorescence polarization; hits give low values. % elongation, % (compound at 16.7 µg/mL). hit rate 0.66% among 150,000. AID 588519; in the data active = % elongation below about 90%; note: some results filed as inactive read as strong as hits
# Target sequence (P03300 1749-2209 limits assumed): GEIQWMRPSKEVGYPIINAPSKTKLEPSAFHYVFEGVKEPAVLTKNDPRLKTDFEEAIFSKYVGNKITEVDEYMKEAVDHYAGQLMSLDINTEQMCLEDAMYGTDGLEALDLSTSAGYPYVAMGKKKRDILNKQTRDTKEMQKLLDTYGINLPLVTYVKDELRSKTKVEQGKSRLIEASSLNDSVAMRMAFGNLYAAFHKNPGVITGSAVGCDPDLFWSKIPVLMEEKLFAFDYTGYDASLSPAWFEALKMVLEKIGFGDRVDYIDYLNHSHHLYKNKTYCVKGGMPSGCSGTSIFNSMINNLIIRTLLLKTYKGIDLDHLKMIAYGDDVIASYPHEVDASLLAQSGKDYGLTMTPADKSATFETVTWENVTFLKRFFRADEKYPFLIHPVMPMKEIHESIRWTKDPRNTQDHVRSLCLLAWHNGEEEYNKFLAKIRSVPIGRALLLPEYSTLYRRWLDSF
# Mtb MbtI inh – MbtI salicylate synthase inhibition | P9WFX0 | purified MbtI enzyme, fluorescence intensity read-out | inhibition, %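 (about 17 µg/mL by stock and volumes)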 | hit rate 0.89% among 100,000;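 active = above 50% in both replicates, above 80% if mildly self-fluorescent; inactive = the rest, strongly fluorescent compounds included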;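 note: 0% = mean of negative and 100% = mean of positive controls; one replicate is shown; some compounds called inactive have numbers as strong as hits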
# PV pol inh intensity – second read-out of PV pol inh, no call of its own (marks repeat the call); % elongation; measured here: total intensity read-out; formula for this scale not given here;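 total fluorescence in place of polarization; lower means less elongation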
# An asterisk follows results filed as active; . = not tested or not shown; & = joins results of further samples.
SMILES,Mtb MenB inh,PV pol inh,PV pol inh intensity,Mtb MbtI inh
CC(=O)n1c(C)c(-c2ccccc2)c2cc(Cl)ccc21,-6,102,104,-5
O=C1c2ccc(Br)cc2C(=O)N1c1cc(Cl)ccc1O,-4,101,102,2
O=C(CSc1ccc(Br)cc1)c1cc2ccccc2o1,.,102,101,22
CC1CN(C(=S)NCCc2ccccc2)CC(C)O1 (configuration not stated),7,98,102,9
CS(=O)(=O)c1ccc(Cl)c(NC(=O)c2ccc(C#N)cc2)c1,5,106,102,-4
CC(=O)NCc1nnc2c3ccccc3c(-c3ccccc3)nn12,-18,104,102,9
Cc1ccc2onc(CNC(=O)Nc3ccccc3N3CCN(C)CC3)c2c1,-12,104,103,-16
CCSc1nnc(-c2cccc(NC(C)=O)c2)o1,-2,103,106,14
CC(C)C(=O)N1N=C(c2ccc(NS(C)(=O)=O)cc2)CC1c1ccccc1 (configuration not stated),-9,106,112,100
Cc1ccc(C(=O)NCc2ccco2)c(C)c1,5,104,107,.

# 6 compounds picked at random from those above, as already listed:
SMILES,Mtb MenB inh,PV pol inh,PV pol inh intensity,Mtb MbtI inh
CC(=O)n1c(C)c(-c2ccccc2)c2cc(Cl)ccc21,-6,102,104,-5
CS(=O)(=O)c1ccc(Cl)c(NC(=O)c2ccc(C#N)cc2)c1,5,106,102,-4
CC1CN(C(=S)NCCc2ccccc2)CC(C)O1 (configuration not stated),7,98,102,9
CCSc1nnc(-c2cccc(NC(C)=O)c2)o1,-2,103,106,14
O=C(CSc1ccc(Br)cc1)c1cc2ccccc2o1,.,102,101,22
CC(C)C(=O)N1N=C(c2ccc(NS(C)(=O)=O)cc2)CC1c1ccccc1 (configuration not stated),-9,106,112,100

# The list continues:
SMILES,Mtb MenB inh,PV pol inh,PV pol inh intensity,Mtb MbtI inh
Nc1ccc(S(=O)(=O)Nc2ccc(Cl)nn2)cc1,-6&-1,104&100,99&100,-11&-16
CC(C)(C)C1CCc2nc(N)sc2C1 (configuration not stated),.,99,93,-6
O=C(/C=C/c1ccco1)OC(C(=O)c1ccccc1)C(=O)c1ccccc1,-47,103,111,-3
NC(=O)c1ccc(N=Cc2c(O)n(Cc3ccco3)c(=O)[nH]c2=O)cc1,-8,97,98,27
CC(=O)Nn1c(C)nc2ccccc2c1=O,-16,103,101,-12
N#CC(C(=O)Nc1ccccc1Cl)=C1CCCC1,7,100,102,10
COC(=O)CC1C(=O)NCCN1c1ncnc2sccc12 (configuration not stated),-28,113,104,2
Fc1ccc(N2CCN(CC3CCCCC3)CC2)cc1,-14,100,100,-8
CCC1CC(c2nc3ccccc3s2)=C(N)O1 (configuration not stated),-2,118,132,34
CC(C)(C)C(=O)C[n+]1ccccc1,9,104,98,4

# Grouped by structure, those above with an aryl thioether with sulfur outside any ring.
SMILES,Mtb MenB inh,PV pol inh,PV pol inh intensity,Mtb MbtI inh
O=C(CSc1ccc(Br)cc1)c1cc2ccccc2o1,.,102,101,22
CCSc1nnc(-c2cccc(NC(C)=O)c2)o1,-2,103,106,14

# Continued:
SMILES,Mtb MenB inh,PV pol inh,PV pol inh intensity,Mtb MbtI inh
Cc1ccc(S(=O)(=O)N2CCc3ccccc3C2CC(=O)OCC(N)=O)cc1 (configuration not stated),-18,99,101,-3
O=C1NC(=O)C(C2(O)C(=O)Nc3c(Cl)cc(Cl)cc32)C(=O)N1 (configuration not stated),-56,96,103,-36
O=C(CSc1ccc(Cl)cc1)NC(=O)NC1CCCC1,-7,103,92,-7
Cn1c(=O)n(C)c2cc(S(=O)(=O)NCCC(=O)O)ccc21,-15,104,106,-4
Cc1ccc(NC(=O)CN2C(=O)S/C(=C\c3cccc(O)c3)C2=O)cc1,-34,103,102,-10
COc1ccc(S(=O)(=O)N(Cc2cc3c(C)cc(C)cc3[nH]c2=O)CC2COCCO2)cc1 (configuration not stated),-22,103,103,4
C=CCn1c(C)cc(C(=O)CSc2nc(C)cc(C(F)(F)F)c2C#N)c1C,-29,46,245,90
O=C(CN(c1ccc2c(c1)OCCO2)S(=O)(=O)c1ccccc1)Nc1ccc(S(=O)(=O)N2CCOCC2)cc1,-32,103,104,-16
CC(C)(C#N)NC1CC1,-37,106,100,0
CCn1cc(C2=NC(C(C)C)CO2)c2ccccc21 (configuration not stated),1,98,102,5
CCOCCc1nnc(NC(=O)c2cccs2)s1,-8,98,101,24
Cn1c(SCCC#N)nnc1-c1cccc(Cl)c1,-27,101,105,-77
O=C(NCC(c1cccs1)N1CCOCC1)c1ccc(NS(=O)(=O)c2cccs2)cc1 (configuration not stated),1,97,100,3
COCc1cc(C)nc(NN)c1C#N,16,101,102,4
S=C1NC2=C(CCCC2)C2(CCCCC2)N1,0,101,100,-17
Cc1cc(Oc2ccnc3cc(Cl)ccc23)ccc1Cl,-25,104,113,-7
CC1Cc2ccccc2N1C(=O)C1CCCN1S(=O)(=O)c1cccc2nsnc12 (configuration not stated),-20,102,96,1
CC(C)(C)c1cc(N/C=C/C(=O)c2ccc(Cl)cc2)no1,6,102,100,-6
O=C(OCc1cc(=O)n2cc(Br)ccc2n1)c1cc(-c2ccco2)nc2ccccc12,-23,100,101,-7
C#CCOc1cccc2oc(CCC)cc(=O)c12,-12,104,105,111
O/N=C(\c1ccccc1)C12CC3CC(CC(C3)C1)C2,-5,102,107,-9
N#CCOC(=O)c1cc(-c2ccccc2)nc2ccccc12,.,99,106,77
Cc1cc(C(C#N)c2nc3ccccc3o2)nc(N2CCN(C(c3ccccc3)c3ccccc3)CC2)n1 (configuration not stated),-12,109,115,-9
CCN(CC)S(=O)(=O)c1ccc(C(=O)NCCc2cc3ccc(OC)cc3[nH]c2=O)cc1,17,100,102,4
COC(=O)c1cc(NC2c3ncccc3C(=O)N2c2ccc(OC)cc2)cc(C(=O)OC)c1 (configuration not stated),-30,106,98,-8
c1ccc(CSc2ncnc3sccc23)cc1,-3,107,109,-3
NCC(O)COCc1ccccc1 (configuration not stated),-12,101,104,-2
CCC(Nc1n[nH]c(=O)[nH]c1=O)C(=O)OC (configuration not stated),10,102,98,6
COc1cc(OC)cc(C(=O)OCC(=O)NC2CC2)c1,-8,104,107,-13
c1ccc(OCCn2c(-c3cccs3)nc3ccccc32)cc1,-17,100,98,-484

# Reprinted from the listing (6 entries):
SMILES,Mtb MenB inh,PV pol inh,PV pol inh intensity,Mtb MbtI inh
CCN(CC)S(=O)(=O)c1ccc(C(=O)NCCc2cc3ccc(OC)cc3[nH]c2=O)cc1,17,100,102,4
COC(=O)c1cc(NC2c3ncccc3C(=O)N2c2ccc(OC)cc2)cc(C(=O)OC)c1 (configuration not stated),-30,106,98,-8
c1ccc(CSc2ncnc3sccc23)cc1,-3,107,109,-3
NCC(O)COCc1ccccc1 (configuration not stated),-12,101,104,-2
CCC(Nc1n[nH]c(=O)[nH]c1=O)C(=O)OC (configuration not stated),10,102,98,6
COc1cc(OC)cc(C(=O)OCC(=O)NC2CC2)c1,-8,104,107,-13

# New compounds follow
SMILES,Mtb MenB inh,PV pol inh,PV pol inh intensity,Mtb MbtI inh
CCn1c(-c2ccc(OC)cc2)csc1=Nc1ccc(C(=O)O)cc1,-30,104,109,-12
C=CCOc1ccccc1CNc1ncn[nH]1,2,99,94,.
O=C(NCCCN1CCOCC1)c1cc2c(s1)CCCC2,.,100,94,-2
CCc1c(C)nc2sc(C)n[n+]2c1C,.,98,114,-9
O=C(NCCN1C(=O)C2C3C=CC(C3)C2C1=O)OC1CCCCC1 (configuration not stated),5,102,102,0
c1ccc(N2CCN(c3ncnc4scc(-c5cccs5)c34)CC2)cc1,-15,105,101,-9
CCCCNC(=O)CC1SC(=NC(c2ccc(OC)cc2)c2c(O)[nH]c(=O)[nH]c2=O)NC1=O (configuration not stated),-20,101,104,23
CC1CCCC(C)N1C(=O)Cn1c(SCC(=O)NCc2ccco2)nc2ccccc21 (configuration not stated),-46,106,102,-8
CCOC(=O)C1=C(C)NC(C)=C(C(=O)OCC)C1C(=O)OCc1nnc(-c2ccccc2)o1,-18,102,111,29
O=C(CSc1ccccc1)Nc1c[nH]c(=O)[nH]c1=O,-30,99,104,1
CC(C)N(CC(N)=O)C(=O)c1ccc(F)c(S(=O)(=O)N2CCCCC2)c1,6,100,103,-4
Cc1nn(-c2ccccc2)c(-c2ccc(O)cc2O)c1-c1ccccn1,0,100,98,53
N#Cc1ccc(OC(=O)c2cccc(-n3cccc3)c2)cc1,-23,103,110,-8
COc1ccc(C2NCCC3(O)CCCCC23)cc1 (configuration not stated),-67,101,104,-1
O=C1CC(NCCc2c[nH]c3ccccc23)C(=O)N1Cc1ccccc1 (configuration not stated),-8,103,104,-5
CC1CCN(C(=O)CSc2n[nH]c(-c3ccccc3)n2)CC1,6,101,107,-4
Cc1cccc(C)c1NC(=O)CCCN1C(=O)NC2(CCCC2)C1=O,2,108,106,-5
CCN(CC)CCC(=O)c1ccc(F)cc1,12,104,97,.
NC(=O)CSc1cn(CCNC(=O)c2ccccc2)c2ccccc12,-20,101,105,8
COc1ccc(OCCCC(=O)NNc2ccccc2)cc1,-1,104,107,-1
COc1cc2c(cc1OC)CN(CC(=O)Nc1ccccc1C(=O)Nc1ccc3c(c1)OCO3)CC2,-23,105,100,-5
Nc1ncccc1Cl,-17,.,.,3
NC(=O)CSc1ncnc2c1nnn2Cc1ccc(F)cc1,-6,102,103,18
COc1ccccc1NC(=O)Cc1noc(COC(=O)c2sc3ccccc3c2Cl)n1,-18,107,122,11
O=C(NCCCN1CCOCC1)c1nnc(-c2ccc3c(c2)OCO3)o1,-13,105,107,-1
CC1=Nc2cc(C(=O)NC(C)c3ccccc3)ccc2Sc2ccccc21 (configuration not stated),-8,100,105,-2
Cc1ccc(Cn2c(CO)cnc2SCC(=O)Nc2nc(C)cs2)cc1,-15,.,.,6
Nc1ncnc2c1ncn2CCOc1ccccc1,-8,103,106,-9
CC(C)(C)NC(=O)CSc1nnc(NC2=NS(=O)(=O)c3ccccc32)s1,-13,97,99,1
CCC(Sc1nc2ccccc2c2nc(C)nn12)C(=O)Nc1cc(OC)ccc1OC (configuration not stated),-1,103,105,10
CCC(C(=O)O)c1ccc(N2Cc3ccccc3C2=O)cc1 (configuration not stated),.,104,105,-13
Cc1cc(OCC(=O)Oc2ccc(-c3nnco3)cc2)ccc1C(C)C,-1,101,104,9
Cc1c2cn[nH]c(=O)c2c(C)n1Cc1cccs1,-14,98,101,7
NC(=O)NC1CCCCCCC1,3,99,97,-5
C/[N+]([O-])=C\c1ccc(F)cc1,8,103,102,12
CCN(CC)S(=O)(=O)c1ccc(N=Nc2c(O)c3ccccc3oc2=O)cc1,-6,100,103,-7
Cn1c(O)c(C=Nc2ccc(Cl)cc2)c(=O)[nH]c1=O,-33,103,102,78
NC(=Nc1ccccc1)SCC(=O)Nc1nonc1N,-30,124,131,.
Cc1cc(C)c(C(N)=O)c(=S)[nH]1,0,104,100,20
CCc1nc(S(C)(=O)=O)c(C#N)cc1C,-2,103,105,-3
CCCn1c(NC(C)=C(C#N)C#N)nc2ccccc21,-4,90,90,106
Cc1cc(C)nc(N/N=C/C2=CCC3CC2C3(C)C)n1 (configuration not stated),-70,99,109,-7

# Only PV pol inh, PV pol inh intensity and Mtb MenB inh, for 2 of the compounds above:
SMILES	PV pol inh	PV pol inh intensity	Mtb MenB inh
Cn1c(O)c(C=Nc2ccc(Cl)cc2)c(=O)[nH]c1=O	103	102	-33
Cc1cc(OCC(=O)Oc2ccc(-c3nnco3)cc2)ccc1C(C)C	101	104	-1
